S aureus helic – inhibitors of S. aureus replicative helicase, primary screen, biochemical, fluorescence unwinding readout; purified S. aureus helicase, fluorescence unwinding assay; about half of the hits fall short of the stated cut; inhibition, %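 (tested at about 80 µM)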; hit rate 0.05% among 120,000;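 active means both duplicates at 50% or more, or one of them with a favoured structure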;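 further: 0% = mean of negative control wells and 100% = mean of positive control wells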
MgrA-DNA mod – S. aureus MgrA activity modulators, primary screen, biochemical, S. aureus Newman, fluorescence polarization; MgrA-DNA binding; inhibition, %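 (about 10 µg/mL by stock and volumes)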; hit rate 0.13% among 84,000; AID 602314, 2012;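 active means above 50% in either of two replicates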;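 further: 0% = protein plus DNA without compound and 100% = DNA alone without protein; higher means less MgrA bound to DNA so lower polarization; one replicate is shown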
Starred values were filed as active, the others as inactive; . = no result given. A portion of the library; count on the stated rates, not on these rows.

Sample of the layout, 18 compounds:
SMILES | S aureus helic | MgrA-DNA mod
CCS(=O)(=O)c1ccc2oc(Nc3ccc(C(C)C)cc3)nc2c1 | 1 | .
COc1ccccc1NC(=O)CCN1CC(C)CC(C)C1 (stereo unspecified) | -2 | 1.9
COc1cccc(C(=O)Cn2c(=O)n(CCC(=O)NCC3CCCO3)c(=O)c3cc(OC)c(OC)cc32)c1 (stereo unspecified) | -20 | .
O=C(NCc1ccc2c(c1)OCO2)c1ccc(CN2CCOCC2)cc1 | 12 | 4.5
COC(=O)c1c(N)n(C2CCCC2)c2nc3ccccc3nc12 | -1 | 0.9
CC(=O)n1c(O)c(/C=C2\C=c3ccc(C)cc3=NC2=O)sc1=N | -29 | 12
COc1ccc(C(=O)CC2(O)C(=O)N(CN3CCCCC3)c3ccc(Br)cc32)cc1 (stereo unspecified) | . | 0.4
C(=Nc1cccnc1)c1c[nH]c2ccccc12 | -12 | -0.5
Cc1sc2nc3c4ccccc4c(N4CCC(C)CC4)nn3c(=O)c2c1C | 4 | 1.4
CC(C)(C)C(=O)CSC1=NNC(c2ccccn2)S1 (stereo unspecified) | . | 3.3
CN(C)c1ccc(-c2nc3cc(N)ccc3o2)cc1 | 6 | .
O=c1[nH][nH]c(=O)c2ncccc12 | 0 | .
CCn1cc(C(=O)N2CCC(C(=O)OC)CC2)c(=O)c2ccc(C)nc21 | -14 | .
O=S(=O)(NCc1csc(-c2cccs2)n1)c1ccc2c(c1)CCO2 | . | -3.2
Cc1cc(C)n(-c2cc(-c3ccccc3)nc3ncnn23)n1 | . | 0.6
CSc1nnc(-c2ccc(C(F)(F)F)cn2)o1 | . | -1.1
O=C1CS/C(=N\N2CCOCC2)N1Cc1ccccc1 | 5 | -0.7
NC(=O)c1c(C(F)(F)F)cc(C(F)(F)F)cc1C(F)(F)F | -15 | .

All compounds of this part, from the first entry:
SMILES | S aureus helic | MgrA-DNA mod
CCS(=O)(=O)c1ccc2oc(Nc3ccc(C(C)C)cc3)nc2c1 | 1 | .
COc1ccccc1NC(=O)CCN1CC(C)CC(C)C1 (stereo unspecified) | -2 | 1.9
COc1cccc(C(=O)Cn2c(=O)n(CCC(=O)NCC3CCCO3)c(=O)c3cc(OC)c(OC)cc32)c1 (stereo unspecified) | -20 | .
O=C(NCc1ccc2c(c1)OCO2)c1ccc(CN2CCOCC2)cc1 | 12 | 4.5
COC(=O)c1c(N)n(C2CCCC2)c2nc3ccccc3nc12 | -1 | 0.9
CC(=O)n1c(O)c(/C=C2\C=c3ccc(C)cc3=NC2=O)sc1=N | -29 | 12
COc1ccc(C(=O)CC2(O)C(=O)N(CN3CCCCC3)c3ccc(Br)cc32)cc1 (stereo unspecified) | . | 0.4
C(=Nc1cccnc1)c1c[nH]c2ccccc12 | -12 | -0.5
Cc1sc2nc3c4ccccc4c(N4CCC(C)CC4)nn3c(=O)c2c1C | 4 | 1.4
CC(C)(C)C(=O)CSC1=NNC(c2ccccn2)S1 (stereo unspecified) | . | 3.3
CN(C)c1ccc(-c2nc3cc(N)ccc3o2)cc1 | 6 | .
O=c1[nH][nH]c(=O)c2ncccc12 | 0 | .
CCn1cc(C(=O)N2CCC(C(=O)OC)CC2)c(=O)c2ccc(C)nc21 | -14 | .
O=S(=O)(NCc1csc(-c2cccs2)n1)c1ccc2c(c1)CCO2 | . | -3.2
Cc1cc(C)n(-c2cc(-c3ccccc3)nc3ncnn23)n1 | . | 0.6
CSc1nnc(-c2ccc(C(F)(F)F)cn2)o1 | . | -1.1
O=C1CS/C(=N\N2CCOCC2)N1Cc1ccccc1 | 5 | -0.7
NC(=O)c1c(C(F)(F)F)cc(C(F)(F)F)cc1C(F)(F)F | -15 | .
O=C(O)CC1NC(=O)N(c2ccccc2)C1=O (stereo unspecified) | 2 | 0.0
CC1CCc2nc(NC(=O)c3ccc(F)c(F)c3)sc2C1 (stereo unspecified) | -7 | .
O=C(Sc1ccccc1)c1ccno1 | . | 8.3
Nn1c(SCCN2C(=O)c3ccccc3C2=O)nnc1-c1ccccc1Br | 0 | .
O=S(=O)(Oc1ccc(Oc2ccccc2)cc1)c1ccc(Cl)cc1 | . | 0.8
Cc1noc(/C=C/N(C)C)c1S(=O)(=O)N1CCC(C(=O)O)CC1 | -6 | .
COc1cc(-c2nnc(COc3cc(C(F)(F)F)cc(C(F)(F)F)c3)o2)cc(OC)c1OC | 8 | .
CCOc1ccc(N(C(C)C(=O)N(C)Cc2ccccc2)S(C)(=O)=O)cc1 (stereo unspecified) | 13 | 1.9
CN(C(=O)CS)c1nc2c3ccccc3ncn2n1 | -156 | .
CN(c1nc(N)c(C#N)c(CC#N)c1C#N)C1CCS(=O)(=O)C1 (stereo unspecified) | -16 | .
O=C(COC(=O)c1ccc[nH]c1=O)NC(c1ccccc1)c1ccccc1 | -11 | .
CSCCOC(=O)C1=C(C)NC(=O)NC1c1ccccc1OCc1ccccc1 (stereo unspecified) | . | 1.1
CCC(C)NC(=O)Cn1cnc2c1c(=O)n(C)c(=O)n2C (stereo unspecified) | 1 | 1.8
CCCOc1cc(C(N)=O)ccc1OC | . | -0.7
CCCc1[nH]nc2c1C(c1c(Cl)noc1C)C(C#N)=C(N)N2c1ccccc1 (stereo unspecified) | -2 | 2.6
COc1ccc(N=c2oc3ccc(Cl)cc3cc2C(=O)NCc2ccco2)cc1OC | 3 | 1.1
C=CCn1c(/N=C/c2ccc3c(c2)OCO3)nc2ccccc21 | 8 | 0.3
O=C(c1ccc(Br)cc1)c1cc2c(cc1Br)OCCO2 | . | -1.1
O=c1oc2ccccc2c(O)c1Cc1ccccc1 | -12 | .
CC(C)C1C(C=C(Cl)Cl)C1C(=O)N1CCN(Cc2ccccc2)CC1 (stereo unspecified) | -10 | -0.9
Cc1cc(C)nc(SCCS(=O)(=O)c2ccc(C(C)(C)C)cc2)n1 | 13 | 1.7
CC(C)C(=O)Nc1ccc(C2=Nn3cc(-c4ccccc4)nc3SC2C)cc1 (stereo unspecified) | 10 | .
COc1ccccc1-c1nnc(NC(=O)c2ccccc2)o1 | 13 | .
O=C(O)CNC(=O)c1ccc(-c2ccccc2)cc1 | -1 | .
COc1ccccc1/C=C1/SC(=S)NC1=O | 4 | -1.6
O=C(CSc1nnc(NC(=O)c2cccc([N+](=O)[O-])c2)s1)Nc1ccc2c(c1)OCO2 | . | -2.0
O=C1CN(c2ccccc2)S(=O)(=O)c2ccccc2N1 | 9 | -1.1
CN1C(=O)N(c2ccc(Cl)cc2)C(C)(O)CC1(C)C (stereo unspecified) | . | 0.8
COc1cc(C(=O)OCC(=O)N2CCCC2=O)cc(OC)c1C | -1 | .
Cc1ccc(S(=O)(=O)N2CCSC2C(=O)O)cc1 (stereo unspecified) | 5 | -4.6
Cc1cccc(/C=C2\SC(=O)N(CCC(=O)Nc3ccccc3N3CCOCC3)C2=O)c1 | 10 | .
CCOC(=O)C1=C(C)N=c2s/c(=C\c3ccc([N+](=O)[O-])cc3)c(=O)n2C1c1ccc(OC)c(OC)c1 (stereo unspecified) | . | 2.9
COc1ccccc1C(O)(CCN1CCCCC1)c1ccccc1 (stereo unspecified) | -1 | .
COc1cc2c(cc1OC)C(c1ccc(Cl)cc1Cl)NC(=O)C2 (stereo unspecified) | . | -2.8
C=CCOc1ccc(/C(CC)=N/O)cc1OC | -1 | .
COc1ccc(CCC(=O)Nc2ccc3nc(N4CCC(C)CC4)cc(C)c3c2)cc1 | 3 | -0.5
CCN1C(=O)C2C(c3ccco3)NC(C(=O)OC)(c3ccccc3)C2C1=O (stereo unspecified) | -1 | 0.2
c1csc(-c2nc(NC3CC3)c3ccccc3n2)c1 | 17 | .
COc1ccc(Oc2ncccc2NC(=O)c2ccc(OC(F)(F)F)cc2)cc1 | . | 0.6
CN(C(=O)CSc1nc(C2CCCCC2)c(C#N)c(=O)[nH]1)c1ccccc1 | . | -0.3
CC(=O)N1c2ccccc2C2(O)N=C(C)SC12 (stereo unspecified) | 6 | 7.6
O=C1N=C(N2CCOCC2)S/C1=C1\C(=O)N(Cc2ccc(Cl)cc2)c2ccccc21 | 14 | .
Next entries follow.
SMILES | S aureus helic | MgrA-DNA mod
CSC(=NC1CCCCC1)NS(=O)(=O)c1ccccc1 | 5 | .
CC12CCC(C(=O)Nc3cccc4cccnc34)(CC1=O)C2(C)C (stereo unspecified) | 19 | .
CCCCN(C)Cc1c(O)ccc2c(=O)c(-c3ccccc3OC)c(C(F)(F)F)oc12 | 7 | 0.6
CCCNS(=O)(=O)c1ccc(N2CCCCS2(=O)=O)cc1 | 11 | .
COC(=O)c1ccc(-c2nc(NC(C)=O)c3c(=O)oc4ccccc4c3n2)cc1 | 7 | .
CCN(CC)c1ccc2c(c1)OC(=O)N(c1ccc(Cl)c(Cl)c1)P2(=O)N1CCOCC1 (stereo unspecified) | -11 | .
CCOC(=O)Nc1ccc2c(Cn3nnc(-c4ccc(Cl)cc4)n3)cc(=O)oc2c1 | -19 | .
NC(=O)c1ccccc1OCCOc1ccccc1C(N)=O | . | 0.9
CN(C1CCCCC1)S(=O)(=O)c1cccc(C(=O)Nc2ccc3c(c2)OCCO3)c1 | -7 | .
Clc1cccc(CN2CN(Cc3ccccc3)c3nc4ccccc4n3C2)c1 | 0 | .
CC(C)c1ccccc1Oc1coc2cc(OCC(=O)NC3CCCCC3)ccc2c1=O | 6 | 0.2
NC(=O)CN1C(=O)CC(c2ccccc2)=Nc2ccccc21 | 7 | .
O=C(CCn1nc(-c2ccccc2)ccc1=O)NC1CC1 | 12 | 0.6
Cc1ccc(CNc2ccc3c(c2)nc(C)n3C)cc1 | 7 | .
COc1ccc(NC(=O)CN2CCCn3nc(C)cc32)cc1 | 4 | .
CN(C)C(=O)c1ccccc1-c1ccccc1 | 2 | -2.7
CCSc1nc2ccc(C)cc2cc1C#N | 10 | -2.5
CCOc1ccc(CN(C)CC(O)COc2cccc(Br)c2)cc1 (stereo unspecified) | 16 | .
O=C1CC(=O)CC(c2cccc(Cl)c2)C1 | . | 0.1
CCOC(=O)C1=C(C)Nc2ccccc2N=C1NC(=O)Cc1ccc(OC)cc1 | 12 | .
O=C(Cc1ncon1)Nc1ccc(F)cc1 | . | -0.5
CNC(=O)CSc1nnc(-c2cccc(S(=O)(=O)N3CCCC3)c2)n1-c1ccccc1 | 14 | .
O=S(=O)(NCc1ccc2c(c1)OCO2)c1ccc(N2CCOCC2)nc1 | 22 | .
NC(=O)c1cccc2cccc(C(=O)O)c12 | . | 0.9
c1ccc(CNc2ncnc3sc4c(c23)CCCC4)cc1 | 8 | -3.9
C=CCN1CCN(C(c2ccccc2)c2nnnn2CCC(C)C)CC1 (stereo unspecified) | 18 | -2.4
COC(CN=Cc1c(O)n(C)c(=O)n(C)c1=O)OC | 3 | .
O=C1CCC/C(=N\NC(=O)CCCOc2ccc(Cl)cc2Cl)C1 | -5 | .
COc1cccc(-n2cc(C(=O)N3CCN(C4CCCCC4)CC3)c3ccccc3c2=O)c1 | -15 | .
CCOc1cc(C2CC(=O)NC3=C2C(=O)C(C(=O)OC)C(C)C3)cc(Br)c1O (stereo unspecified) | 35 | .
O=c1[nH]c(=O)c2nc3ccccc3nc2[nH]1 | -99 | .
O=C(CCSc1ccccc1)Nc1ccccc1C(=O)O | 1 | -2.7
CCN1C(=O)c2cccc3cccc1c23 | 10 | .
COc1ccccc1C(C)NCc1nc2ccc(Cl)cc2n1CCO (stereo unspecified) | -3 | .
S=C1NC(c2ccccc2)=CC(c2ccccc2)N1 (stereo unspecified) | . | -1.5
COc1ccc(N2C(=O)NC(=O)/C(=C/c3ccc(OCCBr)cc3)C2=O)cc1 | . | 9.3
CCOc1ccc(CCNC(=O)c2nnc(-c3cccnc3)o2)cc1OCC | -8 | .
N=C1N=C(N)C(Cc2ccccc2)S1 (stereo unspecified) | -11 | .
CCc1c(C)[nH]c2ccc(C(=O)O)cc12 | 17 | 2.8
CCCCn1c(NCc2ccccn2)nc2ccccc21 | 9 | 0.6
CC(=O)N(Cc1ccc2c(c1)OCO2)c1nnc(C)s1 | -15 | -6.6
O=C(CN1CCC(n2cnc3cc(F)ccc32)CC1)Nc1ccccc1Br | 10 | -1.0
N#CC1=C2SCC(O)(c3ccccc3)N2C(=O)CC1c1cccs1 (stereo unspecified) | 14 | -1.8
CCn1c(=O)n(CC(=O)N2CC(C)CC(C)C2)c(=O)c2ccccc21 (stereo unspecified) | 4 | -0.8
CC(=O)Nc1cccc(NS(=O)(=O)c2ccc(C)cc2)c1 | 8 | -0.5
c1ccc2c3c(c(CN4CCCC4)cc2c1)COC3 | 10 | -0.6
C1CCCCCC2(CCCCC1)OCC(CN1CCCCC1)O2 (stereo unspecified) | 6 | -1.2
O=C(CCCc1nnc2c(=O)n(-c3ccc(Cl)cc3)ccn12)N1CCN(c2ccccc2)CC1 | -3 | .
CCOC(=O)C1=NN(C(C)=O)C2C(=O)N(Cc3ccccc3)C(=O)C12 (stereo unspecified) | 8 | -0.7
N#C/C=C(\c1ccc(F)cc1)n1ccnc1 | -6 | .
COC(=O)c1sc(N)c(C(=O)OC)c1CSc1n[nH]c(N)n1 | 11 | .
CCN(CC(=O)NCc1cccs1)C(=O)c1ccc2c(c1)SC1=NS(=O)(=O)CCN12 | -2 | .
NC(=O)c1ccccc1NC(=O)/C=C/c1ccccc1 | 5 | 1.9
CN(C)S(=O)(=O)c1ccc(C(=O)NC(=O)CSc2ccccc2)cc1 | -12 | .
CN(C(=O)/C=C/C(=O)O)C1CCCCC1 | -1 | .
COc1ccc(OC)c(CCNC(=O)CCc2nnc3ccc(N4CCN(C)CC4)nn23)c1 | -30 | .
N#Cc1cc(N)ccc1Sc1ccccc1 | . | -6.7
CCOC(=O)c1cc2c(nn3cc(C(=O)c4ccccc4O)cnc23)[nH]c1=O | -164 | .
COc1cc(C2Nc3ccccc3O2)cc(OC)c1OC (stereo unspecified) | . | 0.4
Cc1ccc(NC(=O)c2ccccc2C(=O)O)cc1Br | 5 | .
O=C(O)/C=C/C(=O)Nc1ccc(-n2ccc(C(F)(F)F)n2)cc1 | . | -0.5

Source: PubChem BioAssay
